# rRNA inh HTS = inhibits bacterial ribosomal RNA function over humanized ribosomes; E. coli WT GFP vs humanized-ribosome RFP mutants, fluorescence, 24 h; hits give low values; DMSO median 0, no signal -100; 1.6% of 350,000 active; GFP signal change (wild-type ribosome), % (test concentration not listed);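 active means significant combined selectivity score with lowered wild-type GFP, culture density cut under 30%, mutant RFP and density less affected; inactive means any of these conditions unmet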; further: one replicate is shown; some compounds called inactive have numbers as strong as hits
# B2AR ag = activates human beta-2 adrenergic receptor causing internalization | P07550 | Am2.2-beta2AR cells, FAP receptor internalization, flow cytometry; reference of the scale not given here | response, % (no concentration beside the values) | 0.43% of 340,000 active | AID 504454;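 active means response above a set limit, near 3 SD of response in nonfluorescent compounds, cut at about 42% in these data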;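 further: stock transfer was 100 nL into about 11 µL; a reference agonist was the positive control; negative values mostly stem from fluorescent compounds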
# Target sequence (P07550 whole entry, looked up): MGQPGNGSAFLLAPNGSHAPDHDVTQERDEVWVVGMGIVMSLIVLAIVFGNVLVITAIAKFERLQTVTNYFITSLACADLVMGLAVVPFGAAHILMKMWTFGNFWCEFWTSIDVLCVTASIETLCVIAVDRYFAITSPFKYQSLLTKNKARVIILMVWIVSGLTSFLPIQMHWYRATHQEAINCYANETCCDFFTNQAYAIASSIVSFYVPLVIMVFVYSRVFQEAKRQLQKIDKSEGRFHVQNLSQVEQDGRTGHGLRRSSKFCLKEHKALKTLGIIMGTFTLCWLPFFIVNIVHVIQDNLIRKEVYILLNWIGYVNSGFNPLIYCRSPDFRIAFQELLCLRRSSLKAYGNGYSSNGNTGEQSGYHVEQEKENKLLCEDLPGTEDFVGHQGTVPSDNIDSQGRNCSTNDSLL
# rRNA inh HTS OD600 = further read-out of rRNA inh HTS, marked with its call; OD600 change, %; measured here: OD600 growth;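 optical density of the mix in the first replicate; 0 = DMSO median and -100 = no signal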
# rRNA inh HTS RFP = further read-out of rRNA inh HTS, marked with its call; RFP signal change, %; measured here: RFP humanized mutant strains;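 first replicate; 0 = DMSO median and -100 = no signal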
# * hit, by the source's call.
SMILES,rRNA inh HTS,rRNA inh HTS OD600,rRNA inh HTS RFP,B2AR ag
CC(NC(=O)c1ccccc1)C(=O)OCC(=O)Nc1cccc(S(=O)(=O)N2CCCC2)c1 (stereo unspecified),-3,5,-0.1,6
COc1ccccc1-c1cccc([C@@H]2C[C@H]3[C@H](CON3C)CN2C(C)=O)c1,0,3,0.6,6
Cc1ccc(NC(=O)c2ncn(CC(=O)NCc3ccc4c(c3)OCO4)n2)cc1C,-4,-2,-6.8,5
S=C(NCc1ccccc1)C(=S)NCc1ccccc1,3,-8,-1.9,-10
CC(=O)c1ccc(S(=O)(=O)N(C)CC(=O)Nc2cccc(S(=O)(=O)N3CCCC3)c2)cc1,-14,-3,-1.6,20
O=S(=O)(NCCc1c[nH]c2ccccc12)c1ccc(F)cc1,-5,-8,-0.2,1
CCN(CC)c1ccc(/C=C(\C#N)C(N)=O)cc1,-18,-22,-4.0,7
CC1CCC2(CC1)NC(=O)N(CC(=O)NCCc1ccc(F)cc1)C2=O (stereo unspecified),2,7,-0.4,-1
CCC(C)Cn1cnc2c(Sc3c([N+](=O)[O-])ncn3C)nc(N)nc21 (stereo unspecified),9,7,0.7,3
CC(Sc1ncnc2sccc12)C(=O)Nc1ccc(S(=O)(=O)N2CCOCC2)cc1 (stereo unspecified),-1,-4,1.2,8
COC(=O)[C@@]1(C)[C@H]2C(=O)N(C)C(=O)[C@H]2[C@H]2CN=C(SCC(=O)c3ccccc3)N21,7,7,3.6,1
CC(C)c1ccccc1NC(=O)C1CCCN(C(=O)c2ccc(Cl)cc2)C1 (stereo unspecified),-19,-15,-0.3,24
CCOC(=O)c1cc2c(c(CCO)n1)[C@H](CCO)N(S(=O)C(C)(C)C)C2 (stereo partly specified),3,7,-1.5,-11
CC(C)C[C@@H](CNCC(=O)[C@H](Cc1ccccc1)NC(=O)c1[nH]cnc1C(=O)N[C@@H](C)CN)NC(=O)c1nc[nH]c1C(=O)N[C@@H](CC(=O)O)C(=O)O,19,-3,1.6,-5
Cc1ccc(S(=O)(=O)N2CCN(C(=O)CN(Cc3ccco3)Cc3cccs3)CC2)cc1,2,3,1.5,-3
CN(C)CC1CC/C(=C\c2ccc(O)cc2)C1=O (stereo unspecified),-31*,-9.5*,6.4*,3
COc1ccc(NC(=O)COc2ccc(-c3ccccc3)cc2)cc1,2,5,-3.0,6
O=C(COC(=O)c1ccc(Cl)nc1)Nc1ccc2ccccc2c1,4,7,0.8,-2
Cc1ccc(-n2c(SCC(=O)O)nc3sc4c(c3c2=O)CC(C)(C)SC4)cc1,17,16,1.3,1
O=C(N/N=C/c1ccncc1)c1ccncc1,19,19,0.4,3
N#Cc1c(-c2ccc(Cl)cc2)c(-c2ccc(Cl)cc2)nn(CCOC(=O)CCC(=O)O)c1=O,-12,-17,-1.6,3
Cc1nc(SCC(=O)NCC2COc3ccccc3O2)c2c(C)c(C)sc2n1 (stereo unspecified),-1,-2,-1.6,7
COC(=O)[C@@]1(Cc2ccccc2)[C@H]2C(=O)N(C)C(=O)[C@H]2[C@H]2CN=C(SCc3ccc(C#N)cc3)N21,-21*,-10*,2.5*,-5
Nc1ccccc1C=C1Cc2ccccc2C1=O,-8,-33,-3.1,-6
CC(=O)c1ccc(OCC(=O)OCC(=O)N(CC(C)C)c2c(N)n(Cc3ccccc3)c(=O)[nH]c2=O)cc1,5,5,0.0,-2

# Next section; it opens with the four that closed the last part.
SMILES,rRNA inh HTS,rRNA inh HTS OD600,rRNA inh HTS RFP,B2AR ag
Cc1nc(SCC(=O)NCC2COc3ccccc3O2)c2c(C)c(C)sc2n1 (stereo unspecified),-1,-2,-1.6,7
COC(=O)[C@@]1(Cc2ccccc2)[C@H]2C(=O)N(C)C(=O)[C@H]2[C@H]2CN=C(SCc3ccc(C#N)cc3)N21,-21*,-10*,2.5*,-5
Nc1ccccc1C=C1Cc2ccccc2C1=O,-8,-33,-3.1,-6
CC(=O)c1ccc(OCC(=O)OCC(=O)N(CC(C)C)c2c(N)n(Cc3ccccc3)c(=O)[nH]c2=O)cc1,5,5,0.0,-2
Cc1c(C=NNc2ccccc2)[nH]c(=O)[nH]c1=O,0,20,-0.4,-11
CCC(=O)c1cccc(-c2ccccc2)c1CC,7,7,-0.1,11
C[n+]1ccc(CC2C(=[N+]([O-])[O-])C=Nc3ncnn32)cc1 (stereo unspecified),12,7,7.8,7
COc1ccc2c3c(ccc2c1)C(=O)/C(=C/O)CC3,-24,-46,1.9,-24
CN1C(=CC=C2C=C(I)C(=O)C(I)=C2)C(C)(C)c2ccccc21,2,-3,27,39
CC(=O)Nc1c(Br)cc2c(c1Br)C(=O)c1ccccc1-2,-3,-8,-2.9,-12
CC(C)CCN1CCC(N)=NC1=O,12,3,1.2,-1
COc1ccccc1C=NNC(=O)C(=O)NN=Cc1ccccc1OC,7,10,0.6,4
Cc1cccc(C2=NN(c3ccccc3)[C@@H](C(=O)N3CCOC3=O)[C@@H]2c2ccc(F)cc2)c1,23,9,0.0,10
O=C1CS(=O)(=O)N(Cc2ccccc2F)c2ccc(Br)cc21,-17,-6,0.8,9
O=[N+]([O-])c1ccc(COc2ccccc2CN2CCCC2)cc1,-11,7,2.6,-10
COc1ccccc1NC(=O)N(O)C1(C#N)CCCCC1,6,2,-0.7,-7
O=C(/C=C/c1ccc(S(=O)(=O)N2CCOCC2)cc1)N1CCCCC1,2,3,1.8,-4
COc1ccc(-c2cc(C(=O)N(C)CC(=O)Nc3ccccc3C(F)(F)F)c3ccccc3n2)cc1OC,-18,-25,2.7,14
CC(C)(C)OC(=O)N1CCC(C(=O)Nc2ccc(C(=O)N3CCCC3)cc2)CC1,-2,2,-0.1,-11
COc1cccc(CC(=O)Nc2ccc(N3CCOCC3)c(S(=O)(=O)Nc3ccccc3OC)c2)c1,-13,-22,-1.8,18
CC(C)(C)c1cc(C2COC(=O)COCCOCC(=O)OCCOCCO2)cc(C(C)(C)C)c1O (stereo unspecified),-1,7,-0.4,6
CC1CCCCC1NC(=O)Cn1cnc2sccc2c1=O (stereo unspecified),-1,2,3.1,-1
O=C(Nc1nccs1)[C@@H]1CCCN1S(=O)(=O)c1ccccc1F,-2,3,-1.9,-9
Cc1ccc(S(=O)(=O)n2cc(CO)c3ccccc32)cc1,-18,-10,-1.7,-6
O=C(Nc1c(Br)cc2c(c1Br)Cc1cc([N+](=O)[O-])ccc1-2)C(Cl)Cl,7,9,-0.6,1
COc1cccc(C2c3cc4c(cc3OC(N3CCOCC3)C2C)OCO4)c1O (stereo unspecified),3,-1,-4.9,0
N/C(=N\OC(=O)COc1ccc(Cl)cc1Br)c1ccncc1,-53,-77,-27,1
CCN(C(=O)COC(=O)c1ccc2c(c1)OCO2)c1c(N)n(Cc2ccccc2)c(=O)[nH]c1=O,8,18,-0.7,-4
C[C@H](CO)N1C[C@H](C)[C@@H](CN(C)CC2CCCCC2)Oc2c(NC(=O)Cc3ccccc3)cccc2C1=O,-45,-38,-9.3,-1

# 3 of these compounds in another layout:
# Every second line gives: rRNA inh HTS | rRNA inh HTS OD600 | rRNA inh HTS RFP | B2AR ag
- CC(C)(C)OC(=O)N1CCC(C(=O)Nc2ccc(C(=O)N3CCCC3)cc2)CC1
  -2 | 2 | -0.1 | -11
- COc1cccc(CC(=O)Nc2ccc(N3CCOCC3)c(S(=O)(=O)Nc3ccccc3OC)c2)c1
  -13 | -22 | -1.8 | 18
- CC(C)(C)c1cc(C2COC(=O)COCCOCC(=O)OCCOCCO2)cc(C(C)(C)C)c1O (stereo unspecified)
  -1 | 7 | -0.4 | 6

# A few values from the entries so far:
# For rRNA inh HTS, `COc1ccccc1-c1cccc([C@@H]2C[C@H]3[C@H](CON3C)CN2C(C)=O)c1` is entered as 0
# For rRNA inh HTS OD600, `COc1cccc(C2c3cc4c(cc3OC(N3CCOCC3)C2C)OCO4)c1O` (stereo unspecified) is entered as -1

# Following part:
SMILES,rRNA inh HTS,rRNA inh HTS OD600,rRNA inh HTS RFP,B2AR ag
CCCc1cc(=O)[nH]c(SCC(=O)Nc2cc(S(=O)(=O)N3CCCCC3)ccc2Cl)n1,7,6,3.9,4
O=C(CCl)N(O)c1ccc(C=Cc2ccccc2)cc1,-5,12,3.9,3
CCCCn1c(N)c(N(CC(C)C)C(=O)c2cc(-c3ccc(OC)cc3)nc3ccccc23)c(=O)[nH]c1=O,4,1,-0.5,4
CCOc1cc(N2CCOCC2)c(OCC)cc1NC(=O)CN1C(=O)NC(CC)(c2ccc(F)cc2)C1=O (stereo unspecified),0,-2,0.6,6
Cc1ccc(C(=O)NCC(=O)N2CCCN(S(=O)(=O)c3ccc(C)cc3)CC2)cc1,6,-3,0.9,-2
Cc1cccc2c(N)c3c(nc12)CCCC3 (tested in a mixture with another compound),16,1,-2.0,-8
CC(=O)OC1CCC2(C)C(CCC3C2CC(=NO)C2(C)C(C(C)OC(C)=O)CCC32)C1 (stereo unspecified),-6,-18,-3.7,1
COc1ccc2nc(NN=C(C)c3ccccn3)cc(C)c2c1,-32,-71,-3.4,20
Cn1c2c(c(=O)[nH]c1=O)C(c1cccc(O)c1)C1=C(N2)c2ccccc2C1=O (stereo unspecified),-44,-66,2.0,-16
COC(=O)c1c[nH]c(=S)n1Cc1ccccc1,6,4,2.8,-6
CCOc1ccccc1-n1nnnc1SCC(=O)NC(=O)Cc1ccccc1,1,11,-3.3,10
COC(=O)c1cc2c(n(Cc3ccccc3)c1=O)CCCC2=O,5,3,2.6,12
Nn1c(Cc2ccccc2)nnc1Cc1ccccc1,10,13,0.3,-6
O=c1cc(-c2ccccc2)oc2ccc(Cl)cc12,6,28,1.4,-7
O=C(c1cc2nc(-c3ccccc3)cc(C(F)(F)F)n2n1)N1CCCC1,7,11,-2.8,-10
CCN1CCN(c2ccc(S(=O)(=O)N3CCCCC3)cc2NC(=O)/C=C/c2ccc(Cl)cc2)CC1,-10,-58,24,35
Cc1cc(Cl)ccc1OCc1nnc(-c2ccccc2C)o1,0,5,-1.0,-3
Cc1ccc(NC(=O)C(C)OC(=O)C2CC3CCCC(C2)C3=O)cc1S(=O)(=O)N1CCOCC1 (stereo unspecified),11,5,3.1,3
COCc1nnc(NC(=O)C23CC4CC(CC(C4)C2)C3)s1,4,11,2.1,-11
CCN(CC)S(=O)(=O)c1ccc(OC)c(NC(=O)c2ccc(N3CCCC3=O)cc2)c1,-8,5,-1.7,-3
O=C(O)CC/C(=C/c1cccc(NC(=O)c2ccccc2Cl)c1)c1nc2ccccc2s1,-7,-8,3.4,8
COc1ccccc1C(O)(c1ccccc1)c1ccccc1OC,-7,-28,-6.4,-2
O=C(CSc1nc2[nH]c(=O)cc(O)c2s1)Nc1nncs1,4,8,1.1,22
CN1CCC(n2[nH]c(-c3ccccc3)c(Cc3ccccc3)c2=O)CC1,8,3,2.9,-2
CN1C[C@@H]2[C@@H]3C(=O)N(C)C(=O)[C@@H]3[C@](Cc3ccccc3)(C1=O)N2C(=O)c1ccc(F)cc1,0,3,13,-4

# Reformatted with tabs: part of the list above
compound	rRNA inh HTS	rRNA inh HTS OD600	rRNA inh HTS RFP	B2AR ag
COC(=O)c1cc2c(n(Cc3ccccc3)c1=O)CCCC2=O	5	3	2.6	12
Nn1c(Cc2ccccc2)nnc1Cc1ccccc1	10	13	0.3	-6
O=c1cc(-c2ccccc2)oc2ccc(Cl)cc12	6	28	1.4	-7
O=C(c1cc2nc(-c3ccccc3)cc(C(F)(F)F)n2n1)N1CCCC1	7	11	-2.8	-10
CCN1CCN(c2ccc(S(=O)(=O)N3CCCCC3)cc2NC(=O)/C=C/c2ccc(Cl)cc2)CC1	-10	-58	24	35
Cc1cc(Cl)ccc1OCc1nnc(-c2ccccc2C)o1	0	5	-1.0	-3
Cc1ccc(NC(=O)C(C)OC(=O)C2CC3CCCC(C2)C3=O)cc1S(=O)(=O)N1CCOCC1 (stereo unspecified)	11	5	3.1	3

# (list continues)
SMILES,rRNA inh HTS,rRNA inh HTS OD600,rRNA inh HTS RFP,B2AR ag
CCCc1nc(SCC(=O)c2ccc3c(c2)NC(=O)CO3)[nH]c(=O)c1CC,1,4,-0.2,7
N#Cc1c2c(c(-c3ccccc3Cl)[nH]c1=S)CCCC2,-2,3,6.5,1
COc1ccccc1NS(=O)(=O)c1cccc(C(=O)NNC(=O)c2ccc(Cl)nc2)c1,-3,-2,0.5,-2
COc1ccc(S(=O)(=O)N2CCCCC2)cc1NC(=O)CCNC(=O)c1ccccc1Cl,2,-4,-0.4,0
CC1(C)C(=O)C=CC(=O)C(C)(C)C(=O)C=CC(=O)C(C)(C)C2=CC=C(O2)C(C)(C)C(=O)C=CC1=O,16,-4,5.9,62*
O=C(COC(=O)c1cc(S(=O)(=O)N2CCOCC2)ccc1F)NC1CCCCC1,20,2,3.8,5
CCOc1ccc2nc(NC(=O)Cn3c(C)csc3=O)sc2c1,9,5,1.4,-3
CCC(=O)Nc1ccc(C(=O)COC(=O)c2sc(C)nc2C)cc1,6,-6,1.0,-3
CCOC(=O)C1C(=O)NC(C(=O)OCC)(C(=O)OCC)C1C(C)CC (stereo unspecified),7,6,-1.4,-6
COc1cc(OC)c2c(-c3cccc(-c4ccc(OC(F)(F)F)cc4)c3)cc(=O)oc2c1,12,20,-1.8,-3
O=C(Nc1ncccc1O)c1cccc(S(=O)(=O)N2CCN(c3ccc(F)cc3)CC2)c1,-7,-28,-6.1,-1

# Screening results deposited in PubChem BioAssay by several laboratories.

# A portion of the library (hit frequency here may not be typical).
